# Screening data: PubChem BioAssay, several laboratories
# Beta apoptosis: beta cell apoptosis inhibition. INS-1E cytokine-induced death, ATP luminescence, 48 h; percent of positive-control rescue, neutral wells zero. protection from apoptosis, % (no concentration beside the values). 0.8% of 300,000 active;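 active = all replicates at 75% or more, or half of them and the mean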;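 note: 0% = cytokine-treated negative control wells and 100% = positive control rescue; higher means more ATP so stronger rescue from cytokine killing; wells of about 40 µL received 100 nL stock; the first replicate is given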
# rRNA inh HTS: inhibits bacterial ribosomal RNA function over humanized ribosomes | E. coli WT GFP vs humanized-ribosome RFP mutants, fluorescence, 24 h; hits give low values; DMSO median 0, no signal -100 | GFP signal change (wild-type ribosome), % (no concentration beside the values) | 1.6% of 350,000 active | AID 720706;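 active = significant combined selectivity score with lowered wild-type GFP, culture density cut under 30%, mutant RFP and density less affected; inactive = any of these conditions unmet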; note: one replicate is shown; some compounds called inactive have numbers as strong as hits
# T cruzi repl: blocks replication of Trypanosoma cruzi. AID 1885. inhibition, % (no concentration beside the values). T. cruzi beta-gal in NIH3T3, luminescence, 90 h. 1.4% of 300,000 active;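 active = mean inhibition across valid replicates above about 55%, limit read from the data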;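 note: signal also drops with host cell toxicity which is not excluded here; 0% = plate median of DMSO wells and 100% = zero luminescence signal; higher percent means less beta-gal luminescence so fewer parasites; stock transfer was 50 nL into about 50 µL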
# MLL AF4-AF9 inh: MLL-AF4/AF9 protein interaction inhibition. inhibition, % at 10 µM. AlphaScreen, biotin-AF4 peptide binding to FLAG-AF9. 0.47% of 350,000 active;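 active = every replicate reaching a set inhibition limit, whatever the replicate mean, cut at about 25% in these data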;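 note: 0% = plate neutral control median and 100% = total signal loss; the record names both 10 and 1 µM as test concentration; the first replicate is given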
# Target sequence (P42568 whole entry, looked up): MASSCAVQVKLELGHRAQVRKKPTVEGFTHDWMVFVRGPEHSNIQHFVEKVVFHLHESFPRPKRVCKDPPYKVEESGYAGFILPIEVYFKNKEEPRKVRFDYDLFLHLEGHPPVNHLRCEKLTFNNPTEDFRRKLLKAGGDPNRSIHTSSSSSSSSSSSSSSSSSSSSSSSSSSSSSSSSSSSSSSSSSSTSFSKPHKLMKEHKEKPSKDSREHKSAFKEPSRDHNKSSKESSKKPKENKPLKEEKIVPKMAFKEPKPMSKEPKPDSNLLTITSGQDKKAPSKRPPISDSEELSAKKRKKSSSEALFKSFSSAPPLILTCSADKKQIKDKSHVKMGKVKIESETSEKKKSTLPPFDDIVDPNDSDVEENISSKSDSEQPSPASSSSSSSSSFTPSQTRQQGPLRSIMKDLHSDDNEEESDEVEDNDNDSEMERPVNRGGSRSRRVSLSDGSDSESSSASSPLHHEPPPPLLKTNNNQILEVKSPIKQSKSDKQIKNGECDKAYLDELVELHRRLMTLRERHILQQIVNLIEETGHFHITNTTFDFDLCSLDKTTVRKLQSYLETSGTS
# Ecoli growth: blocks Escherichia coli growth | AID 1053175 | OD600 absorbance (no concentration beside the values) | OD600, 23 h; hits give low values | 0.21% of 330,000 active;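 active = OD600 absorbance below the run mean of sample wells minus 3.6 SD, in any replicate, cut at about 0.56 in these data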;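 note: stock transfer was 300 nL into about 60 µL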
# UCH37 inh: blocks the human deubiquitinase UCH37; Q9Y5K5; purified proteasome/UCH37, Ub-AMC cleavage fluorescence; inhibition, % (test concentration not listed); 0.33% of 330,000 active; AID 588478;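 active = mean of two replicates above 20%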;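 note: 0% = compound-free wells with enzyme and 100% = wells lacking proteasome; stock transfer was 100 nL into about 20 µL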
# Target sequence (Q9Y5K5 whole entry, looked up): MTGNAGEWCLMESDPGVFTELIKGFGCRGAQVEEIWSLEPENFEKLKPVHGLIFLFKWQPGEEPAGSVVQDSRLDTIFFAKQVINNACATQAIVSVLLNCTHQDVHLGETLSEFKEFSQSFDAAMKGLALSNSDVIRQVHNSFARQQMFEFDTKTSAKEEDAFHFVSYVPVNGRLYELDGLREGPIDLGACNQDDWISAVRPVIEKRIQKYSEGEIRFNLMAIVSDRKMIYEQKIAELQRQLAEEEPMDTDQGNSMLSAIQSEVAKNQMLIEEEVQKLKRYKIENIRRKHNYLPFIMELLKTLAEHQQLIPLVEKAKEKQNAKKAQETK
#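 Schedule: 30 min plus 25 min, room temperature / Material: human UCH37 within purified proteasomes / Technique: AMC fluorescence intensity at 355/460 nm / Buffer or medium: pH 7.4 Tris-HCl (50 mM) with ovalbumin, ATP-MgCl2, DTT / Controls: wells without proteasome as full block, compound-free enzyme plus substrate as uninhibited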
# FGF22 binding: binders of recombinant human FGF22 by thermal shift | Q9HCT0 | SYPRO orange fluorescence; percent of sucrose octasulfate shift, DMSO zero | calls only at 9.99 µM | 1.5% of 340,000 active;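 active = melting point raised past a set limit in the mean and every replicate; three in four hits are not shown here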
# Target sequence (Q9HCT0 whole entry, looked up): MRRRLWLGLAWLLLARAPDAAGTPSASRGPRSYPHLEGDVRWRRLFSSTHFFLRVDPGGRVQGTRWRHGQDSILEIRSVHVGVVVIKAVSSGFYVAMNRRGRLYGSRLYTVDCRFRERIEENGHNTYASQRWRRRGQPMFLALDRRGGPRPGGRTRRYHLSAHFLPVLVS
# A1 inh: inhibitors of the anti-apoptotic protein A1, read as caspase activation | AID 2462 | caspase activation, % (test concentration not listed) | 0.066% of 330,000 active | MEF A1-2A-BIM cells, Caspase-Glo 3/7 luminescence, 3 h; percent of clofoctol response, vehicle zero;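 active = over half of replicate activation scores above 10%, or exactly half above 10 with the replicate mean above 10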;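 note: wells of about 30 µL received 50 nL stock; many hits fall short of the cut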
# rRNA inh HTS OD600: recorded beside rRNA inh HTS, whose call it bears; OD600 change, %; measured here: OD600 growth;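 optical density of the mix in the first replicate; 0 = DMSO median and -100 = no signal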
# rRNA inh HTS RFP: second read-out of rRNA inh HTS, no call of its own (marks repeat the call); RFP signal change, %; measured here: RFP humanized mutant strains;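 first replicate; 0 = DMSO median and -100 = no signal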
# Numbers without * were called inactive; i = inactive; . = no result given. These rows are one share of the data; count on the stated rates, not on these rows.
SMILES,Beta apoptosis,rRNA inh HTS,rRNA inh HTS OD600,rRNA inh HTS RFP,T cruzi repl,MLL AF4-AF9 inh,Ecoli growth,UCH37 inh,FGF22 binding,A1 inh
CCN(CC)CCN1C(=O)C(O)=C(C(=O)c2sc(C)nc2C)C1c1cccnc1 (centres undefined),-7,.,.,.,-3,.,0.72,11,.,0.5
CC(C)NC(=O)c1cccc(Cn2cc(Cl)cn2)c1,4,.,.,.,-7,.,0.67,3.9,.,-0.3
O=C(c1cccc(Br)c1)N1CCN(C2=NS(=O)(=O)c3ccccc32)CC1,.,19,10,4.3,-6,2.2,.,.,i,0.8
COc1cc(OC)c(NS(=O)(=O)c2c(C)[nH]c(=O)[nH]c2=O)cc1Cl,-12,9,11,1.6,-9,-2.0,0.67,4.5,i,0.2
CCCCCCSc1ccc([C@H]2N[C@@](CC(C)C)(C(=O)OC)[C@H]3C(=O)N(C)C(=O)[C@@H]23)cc1OC,7,3,3,-5.2,51,5.3,0.79,1.6,i,-0.6
CC(C)(O)C(=O)NN(C(=O)c1ccccc1)c1cccc(Br)c1,0,.,.,.,-15,.,0.7,1.3,.,-0.7
Cc1ccc(O)c(C2=NNC(c3ccc(Cl)cc3)C2)c1 (centres undefined),7,-42,-43,-13,4,-11,0.64,1.7,i,-2.3
CC(=O)c1ccc(NC(=O)/C(=C\c2ccccc2)NC(=O)c2ccco2)cc1,-5,-16,-9,-1.6,39,-2.9,0.69,5.9,i,0.6
COc1ccc(/C=C(/NC(=O)c2cccc([N+](=O)[O-])c2)C(=O)O)cc1,6,9,6,-1.4,-7,-4.0,0.7,5.7,i,0.1
CC(=O)Oc1cc2c(C(C)=O)coc2c2ccccc12,-2,.,.,.,0,.,0.75,1.2,.,-0.1
O=C(Nc1ccc(OC(F)(F)F)cc1)c1ccc2c(c1)no[n+]2[O-],22,-44,-39,-7.2,35,-0.1,0.56,4.3,i,-1.2
Cc1cc(Cl)c(OCCCN2CCCCC2)c(Br)c1,.,-9,-10,-14,43,3.1,.,.,i,0.8
COc1ccccc1CNC(=O)c1ccc(SC)cc1OC,-4,-55,-76,-25,30,-0.9,0.71,-0.1,i,-0.8
CCC(=O)Nc1cc2nn(-c3ccc(OC)cc3)nc2cc1C,.,.,.,.,-4,.,0.67,-181,.,-3.9
Cc1ccc(C(=O)COC(=O)c2cc(=O)[nH]c3ccccc23)cc1,-3,-2,1,-0.7,-8,-3.0,0.68,-27,i,1.9
Cc1ccc(Cn2c(SCC(=O)NCC3CCCO3)nc3c2c(=O)n(C)c(=O)n3C)cc1 (centres undefined),-2,-8,-20,-6.0,-1,-1.6,0.68,3.8,i,0.2
O=C(Nc1ccc(S(=O)(=O)N2CCCCC2)cc1)C1CC(=O)N(c2ccc(Cl)cc2)C1 (centres undefined),4,0,-17,14,29,2.8,0.63,0.1,i,1.1
Cc1cccc(N2CCC(N=CN(C)C)=N2)c1,8,3,0,-0.3,20,0.9,0.69,4.6,i,-0.3
CCCn1nnc(NC(=O)c2cc(Br)cc(Br)c2OC)n1,-2,.,.,.,4,.,0.7,1.4,.,0.5
O=C(CSc1nnnn1C1CC1)N1CCN(c2cccc(Cl)c2)CC1,-3,0,-26,-1.4,.,3.0,0.67,2.5,i,-0.5
COc1ccc(CCn2c(-c3ccc(C(C)(C)C)cc3)n[nH]c2=S)cc1OC,-1,3,4,-2.6,23,-2.0,0.67,2.1,i,0.3
N#CCC(=O)Nc1ccc(C(=O)NCC2(N3CCOCC3)CCCCC2)cc1,4,.,.,.,.,1.1,0.71,3.8,i,-0.4
COc1ccc2c(c1)C(=O)Cc1ccccc1O2,4,-3,-2,-4.4,0,-2.7,0.67,-12,i,1.2
COc1cc(OC)cc(C(=O)NCCN2C(=O)S/C(=C\c3cccs3)C2=O)c1,9,.,.,.,12,-1.5,0.65,3.7,i,-0.7
CCCCC1(C)NC(=O)c2c(C)sc(C(=O)OCC)c2N1 (centres undefined),-2,.,.,.,4,.,0.77,-110,.,-0.2

# Compound profiles, from the list above.
# Cc1ccc(Cn2c(SCC(=O)NCC3CCCO3)nc3c2c(=O)n(C)c(=O)n3C)cc1 (centres undefined) is entered as Beta apoptosis = -2; rRNA inh HTS = -8; rRNA inh HTS OD600 = -20; rRNA inh HTS RFP = -6.0; T cruzi repl = -1; MLL AF4-AF9 inh = -1.6; Ecoli growth = 0.68; UCH37 inh = 3.8; FGF22 binding = i; A1 inh = 0.2
# CCCCCCSc1ccc([C@H]2N[C@@](CC(C)C)(C(=O)OC)[C@H]3C(=O)N(C)C(=O)[C@@H]23)cc1OC is entered as Beta apoptosis = 7; rRNA inh HTS = 3; rRNA inh HTS OD600 = 3; rRNA inh HTS RFP = -5.2; T cruzi repl = 51; MLL AF4-AF9 inh = 5.3; Ecoli growth = 0.79; UCH37 inh = 1.6; FGF22 binding = i; A1 inh = -0.6

# Back to the main list with the three entries that preceded the break.
SMILES,Beta apoptosis,rRNA inh HTS,rRNA inh HTS OD600,rRNA inh HTS RFP,T cruzi repl,MLL AF4-AF9 inh,Ecoli growth,UCH37 inh,FGF22 binding,A1 inh
COc1ccc2c(c1)C(=O)Cc1ccccc1O2,4,-3,-2,-4.4,0,-2.7,0.67,-12,i,1.2
COc1cc(OC)cc(C(=O)NCCN2C(=O)S/C(=C\c3cccs3)C2=O)c1,9,.,.,.,12,-1.5,0.65,3.7,i,-0.7
CCCCC1(C)NC(=O)c2c(C)sc(C(=O)OCC)c2N1 (centres undefined),-2,.,.,.,4,.,0.77,-110,.,-0.2
Cn1c(SCC(=O)O)nc2ccccc2c1=O,-5,1,6,0.8,3,-2.1,0.69,0.2,i,0.9
C=CCNc1nnc(C)c2ccccc12,3,.,.,.,-15,.,0.68,0.9,.,1.4
CCOc1ccccc1OCC(=O)NCc1ccco1,0,16,18,3.5,-1,-5.1,0.67,1.8,i,0.0
Cc1cc(C)cc(N(CC(=O)Nc2ccc(C)cc2Cl)S(=O)(=O)c2c(C)[nH]c(=O)[nH]c2=O)c1,.,-6,-29,12,-12,1.9,.,.,i,.
CCC1Oc2ccccc2N(CC(=O)NCC2CCCO2)C1=O (centres undefined),-10,12,3,1.3,1,-1.3,0.7,0.2,i,0.3
COc1ccc(CN2CC(C(=O)NCc3cccc(OC)c3)CC2=O)cc1 (centres undefined),-1,.,.,.,-6,.,0.71,-1.7,.,0.3
Cc1ccc2nsnc2c1NC(=O)c1ccc(-c2cc(Cl)ccc2Cl)o1,47,.,.,.,19,.,0.69,-13,.,0.1
Cc1ccc(S(=O)(=O)Nc2ccccc2CNc2ccc(Br)cn2)cc1,-5,.,.,.,16,.,0.75,5.0,.,0.0
Cc1ccc(S(=O)(=O)N2C(=O)C(C)SC2=Nc2ccccc2)cc1 (centres undefined),-7,.,.,.,-8,.,0.65,1.1,.,0.3
Clc1nc(-c2n[nH]nc2Cl)n[nH]1,-3,.,.,.,-15,.,0.73,1.8,.,1.3
O=C(CN1C(=O)c2ccc([N+](=O)[O-])cc2C1=O)NCC1CCCO1 (centres undefined),-5,9,9,2.2,-3,-1.8,0.65,1.7,i,-0.3
COc1ccc(NC(=O)C2CCCN(C)C2)cc1OCC(C)C (centres undefined),-4,.,.,.,8,.,0.68,0.4,.,-0.4
COc1ccccc1Nc1nc(=O)[nH]nc1C,2,.,.,.,-20,.,0.71,5.5,.,-0.4
CS(=O)(=O)N1CCN(c2ccccc2NC(=O)c2ccc([N+](=O)[O-])o2)CC1,7,-3,10,2.7,49,0.1,0.69,1.1,i,0.0
CON(C)C(=O)C[C@@H]1C[C@H](OC(=O)c2ccc([N+](=O)[O-])cc2)CN1C(=O)OC(C)(C)C,-3,-7,-8,4.2,.,-1.2,.,0.3,i,-0.7
COc1ccc(CCNS(=O)(=O)c2cccc(C(=O)O)c2)cc1OC,4,.,.,.,-6,.,0.74,-1.7,.,-2.0
C=CC[n+]1c(/C=C/c2ccc(OC(C)=O)c(OC)c2)ccc2ccccc21,28,-8,13,-2.8,27,3.3,0.7,6.9,i,2.1
COc1ccc(NC(=O)CSc2nc3cccnc3n2C)cc1,9,-7,-18,2.2,3,-2.9,0.67,-0.3,i,0.2
Cn1ncc(Br)c1NC(=O)Nc1ccccc1,.,.,.,.,4,.,0.66,2.0,.,0.1
O=C(COc1ccccc1Cl)NCCNC(=O)c1ccncc1,1,7,5,1.8,-2,-1.6,0.7,0.9,i,1.5
O=C(NCc1ccccn1)c1cccs1,-2,.,.,.,-18,.,0.73,2.7,.,0.4
CN1CCN(C(=O)c2cccn(Cc3ccc(C(F)(F)F)cc3)c2=O)CC1,-5,9,11,-1.6,-9,-2.5,0.67,0.6,i,0.4
Cc1cccc2cc(/C=N/NC(=O)c3ccccc3O)c(Cl)nc12,.,.,.,.,1,0.6,.,.,i,-0.2
COc1ccc(C(=O)CSc2nnc(CNC(=O)c3ccccc3)o2)cc1,-4,-5,-4,-0.7,-7,2.6,0.69,3.6,i,-0.5
COc1ccc(CNC(=O)C(C)n2nc(C)c3c(C)n(-c4ccccc4)nc3c2=O)c(OC)c1 (centres undefined),4,9,19,-1.5,30,-0.8,0.67,5.8,i,-0.1
# (continued)
SMILES,Beta apoptosis,rRNA inh HTS,rRNA inh HTS OD600,rRNA inh HTS RFP,T cruzi repl,MLL AF4-AF9 inh,Ecoli growth,UCH37 inh,FGF22 binding,A1 inh
CSCCC(NC(=O)c1ccco1)C(=O)NCC(c1ccco1)N1CCCCC1 (centres undefined),-5,14,17,-0.6,.,0.2,0.68,3.3,i,1.5
CCC(Cc1ccccc1)n1c(=S)[nH]c2ccccc2c1=O (centres undefined),-2,-54,-80,-33,21,-0.5,0.72,-0.4,i,-1.0
Cc1ccc(O)c(-c2cc(C(=O)NCc3ccc4c(c3)OCO4)[nH]n2)c1,-17,.,.,.,4,.,0.7,-9.0,.,0.7
COc1ccc(C(=O)Nc2ccc(N3CCN(c4ccc(OC)cc4)CC3)c(C#N)c2)cc1,4,.,.,.,-4,.,0.71,.,.,-0.4
CCN(C(=O)COC(=O)c1cc(-c2ccccc2)nc2c1c(C)nn2-c1ccccc1)C1CCS(=O)(=O)C1 (centres undefined),2,17,2,-0.5,29,-2.3,0.73,-115,i,0.8
CN(NC(=O)COc1ccccc1)c1ccccc1,-7,.,.,.,7,.,0.69,-1.0,.,0.5
Cc1onc(-c2ccccc2)c1C(=O)NC(C)c1ccccc1 (centres undefined),-7,5,5,-1.6,-5,0.2,0.69,-2.1,i,0.2
O=C(COC(=O)Cn1cnc2ccccc2c1=O)Nc1ccccc1OC(F)F,-6,3,4,0.2,.,-1.5,0.64,0.6,i,0.7
CCc1ccc(NC(=O)C(C)OC(=O)c2ccc(-n3cnnn3)cc2)cc1 (centres undefined),7,2,0,0.6,3,-0.9,0.66,0.2,i,-0.2
CSc1cccc(NC(=O)CCS(=O)(=O)c2cccc3nonc23)c1,2,-10,-10,2.8,7,8.4,0.69,3.6,i,0.1
Cc1cc(NS(=O)(=O)c2ccc(NS(=O)(=O)c3cc(C)c(Cl)cc3Cl)cc2)no1,-6,3,-32,-4.6,-2,-3.1,0.69,1.7,i,0.2
